# Assay outcomes deposited in PubChem BioAssay by several laboratories.
# Rce1 inhib: yeast Rce1p protease inhibitors, primary screen, biochemical, fluorescence, cell-free homogeneous | CAAX prenyl protease 2 (Saccharomyces cerevisiae (strain ATCC 204508 / S288c)), Q03530 | yeast membranes, quenched prenylated peptide cleavage fluorescence | calls only | 0.27% of 290,000 active | AID 2563, 2010;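 active means fall in fluorescence gain of 50% or more versus controls, with final raw signal at or below 3038400; inconclusive means same 50% fall but final raw signal above 3038400; inactive means fall in fluorescence gain under 50%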;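 further: plate controls were neutral control wells for no effect and wells lacking membranes for full effect; tested at 10 µM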
# Target sequence (Q03530 whole entry, looked up): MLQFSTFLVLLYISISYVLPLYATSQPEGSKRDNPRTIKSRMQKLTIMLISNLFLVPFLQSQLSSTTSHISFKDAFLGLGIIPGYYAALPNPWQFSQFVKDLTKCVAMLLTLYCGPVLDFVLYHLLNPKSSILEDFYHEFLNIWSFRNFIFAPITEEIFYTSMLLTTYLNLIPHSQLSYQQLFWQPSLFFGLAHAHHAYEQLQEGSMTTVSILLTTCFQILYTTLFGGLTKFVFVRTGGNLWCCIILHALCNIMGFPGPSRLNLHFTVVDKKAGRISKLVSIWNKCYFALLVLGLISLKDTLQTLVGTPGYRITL
# CSC inhib: cancer stem cell viability inhibitors, primary screen, luminescence; cancer stem cell-like cells viability; inhibition, % at 7.5 µM; 1.1% of 300,000 active;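 active means mean at 75% or more and at least half the replicates too; inconclusive means mean and replicates disagree; tested in HMLE shEcad cells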;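 further: 0% = median of negative and 100% = median of positive control wells; the first replicate is given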
# eIF4H inh: human eIF4H binding inhibitors, primary screen, translation initiation inhibitor project, biochemical, uHTS, fluorescence polarization; Eukaryotic translation initiation factor 4H (Homo sapiens), Q15056; eIF4H fluorescence polarization binding assay; inhibition, % at 35 µM; 0.94% of 290,000 active;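 active means 50% or more with normal probe brightness, or confirmed in later tests; inconclusive means above 50% with abnormal brightness, or retests that disagree; inactive means below 50% or failed in later tests; about a fifth of its hits are not listed in these tables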;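 further: calls also rest on retests at 20 µM and on dose response follow-up; 0% = protein and probe with vehicle and 100% = probe without protein; strong numbers were not always called active; many hits fall short of the cut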
# Yeast UUG start: modulators of yeast start codon fidelity, primary screen, whole organism, S. cerevisiae, single point, plate reader | S. cerevisiae UUG-firefly luciferase reporter, luminescence/redox ratio | activity score, % at 18.7 µM | 0.13% of 350,000 active | AID 602363, 2012;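 active means replicate mean at a twofold rise or more, about +100% in these data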;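 further: firefly luciferase made from a UUG start codon reports start codon fidelity; reporter light over untreated wells divided by growth signal over untreated wells; some hits fall short of that in this replicate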
# HIV Env fusion: inhibitors of HIV-1 Env-driven cell-cell fusion, primary screen, HeLa-JRFL effector, CEM21 target cells, luciferase; inhibition, % at 12.3 µM; AID 651610, 2012; 1.1% of 360,000 active;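 active means mean replicate inhibition score of at least 50 and every replicate individually at or above 50; inconclusive means only one of the two criteria met; inactive means mean below 50 and not all replicates reaching 50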;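 further: 0% = plate neutral controls and 100% = maraviroc near 300 nM; one replicate is shown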
# PABP FP inh: PABP poly(A) RNA binding inhibitors, primary screen, biochemical, fluorescence polarization, uHTS | Polyadenylate-binding protein 1 (Homo sapiens), P11940 | inhibition, % at 35 µM | 1% of 290,000 active | AID 2014, 2009;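 active means 50% or more with normal probe brightness, or confirmed in later tests; inconclusive means above 50% with abnormal brightness, or retests that disagree; inactive means below 50% or failed in later tests; about a fifth of its hits are not listed in these tables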;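 further: calls also rest on retests at 20 µM and on dose response follow-up; controls were probe without protein and protein plus probe with vehicle; some compounds called inactive have numbers as strong as hits; many hits fall short of the cut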
# MT1-MMP act inh: blockers of MT1-MMP proenzyme processing, primary screen, HT1080 RFP-PRO-GFP cells, GFP/RFP fluorescence; GFP/RFP ratio change, % at 20 µM; 0.061% of 360,000 active; AID 651647, 2012; GFP/RFP ratio fluorescence, overnight; percent of plate control window, DMSO zero;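 active means GFP/RFP ratio change of at least 30% with cell ATP level not reduced by more than half and red fluorescence within 50% of control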; further: strong numbers were not always called active
#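 system = RFP-PRO-GFP reporter HT1080 cells | dosing = 20 µM single dose, 1% DMSO | timing = overnight cell settling, then overnight compound exposure, 37 °C, 5% CO2 | read-out basis = GFP/RFP fluorescence ratio | controls = DMSO and RFP-L50D-GFP cell wells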
# eIF4H inh retest: further read-out of eIF4H inh, marked with its call; inhibition, %; compound at 20 µM; confirmation average;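 mean of two retest wells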
# PABP FP inh retest: recorded beside PABP FP inh, whose call it bears; inhibition, %; compound at 20 µM; confirmation repeats;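 mean of two retest wells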
# MT1-MMP act inh RFP: recorded beside MT1-MMP act inh, whose call it bears; RFP signal change, %; measured here: RFP expression control read;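 0 = vehicle wells; hits needed this value within 50% of zero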
# * hit, by the source's call; i = inactive; ? = inconclusive; / = no result given. A portion of the library (hit frequency here may not be typical).
SMILES,Rce1 inhib,CSC inhib,eIF4H inh,Yeast UUG start,HIV Env fusion,PABP FP inh,MT1-MMP act inh,MT1-MMP act inh RFP,others
Cn1c(N)c(C(=O)CSc2nnc(NC3CCCCC3)s2)c(=O)n(C)c1=O,/,/,/,-10,-18,/,5,-4,
COc1ccc(CCNC(=O)Cn2nc(C(=O)O)c3ccccc3c2=O)cc1OC,i,2,11,/,2,9,3,3,
COc1ccc(CCn2nnc(-c3ccc(NC(C)=O)c(Cl)c3)n2)cc1,i,-15,-6,-13,-71,3,-8,-4,
Cn1c(SSc2ccc(-c3cccnc3)n2C)ccc1-c1cccnc1,/,/,/,6,-1,/,-9,-7,
Oc1c(Br)cc(Br)c(/C=N/n2c(-c3ccccc3)n[nH]c2=S)c1Br,i,11,44*,-21,12,66*,1,0,eIF4H inh retest=100*;PABP FP inh retest=99*
Cc1ccc2c(Cl)c(C(=O)Nc3nn[nH]n3)sc2c1,i,-5,8,/,6,4,4,3,
Cc1ccc([C@@H]2C[C@H]3CN(Cc4cccc(Cl)c4)C(=O)[C@]34CCCN24)o1,i,-8,12,-4,-17,11,-2,3,
Cc1ccc(N2CC(C(=O)N3CCOCC3)CC2=O)cc1C (stereo not drawn),i,9,0,/,11,8,1,5,
O=C(Nc1ccccc1C(=O)NC1CCCCC1)c1ccccc1,i,36,9,-13,4,-7,-1,4,
Cc1cccc(NC(=O)c2cnc3scc(C)n3c2=O)c1,i,-3,-3,-9,-57,0,-2,-2,
COc1cc(/C=C(\C#N)C(=O)N2CCc3ccccc32)ccc1O,i,-3,-11,-5,15,-15,-40,0,
O=C(Cn1cnc2ccccc2c1=O)N1CCN(c2ccc(F)cc2)CC1,i,3,-5,-14,10,5,1,5,
Cc1cc(NC(=O)C(C)Sc2nc(-c3cccs3)nc3ccccc23)no1 (stereo not drawn),/,/,/,-4,-27,/,-5,-5,
COc1ccccc1C1CCCN1Cc1nc(-c2ccc(C)s2)oc1C (stereo not drawn),i,/,6,13,35,-6,-1,3,
COc1ccc(N(CC(=O)N2CCCCCC2)S(=O)(=O)c2ccccc2[N+](=O)[O-])c(OC)c1,i,-10,/,2,31,/,-2,4,
FC(F)(F)c1cccc(-c2nn[nH]n2)c1,i,-9,-12,/,-6,-3,-5,-7,
Cc1ccc(C(=O)NCCCN2CCOCC2)c(Cl)c1,i,-15,0,-3,-6,1,0,0,
CCOC(=O)N1CCN(C(=O)c2ccc3c(c2)N(Cc2cccc(Cl)c2)C(=O)c2ccccc2S3=O)CC1 (stereo not drawn),i,-14,-13,-37,2,-15,-5,-5,
CCCCn1nc(C(=O)Nc2ccc3c(c2)OCCO3)c2ccccc2c1=O,/,/,/,-4,28,/,-3,-4,
COc1cccc(/C=N/NC(=O)c2ccc(CN3c4cccc5cccc(c45)S3(=O)=O)cc2)c1,i,0,-5,-11,/,-2,1,-2,
O=C(Nc1ccnn1C1CCN(CC(O)CO)CC1)C1CCCC1 (stereo not drawn),i,-17,10,-20,15,0,0,4,
Cc1oc2cc3oc(=O)c(CCC(=O)NCCC(=O)O)c(C)c3cc2c1C,i,1,11,-4,-4,16,3,5,
CC1=C(C(=O)Nc2ccc(C(=O)N3CCN(c4cccc(Cl)c4)CC3)cc2)SCCO1,i,-7,-4,-14,2,3,1,3,
Nc1nnc(SCC(=O)NN2C(=O)NC3(CCCCC3)C2=O)s1,i,-6,-1,/,-1,23,5,4,
CCC(C)Sc1cccc(-c2nc3ccccn3c2NCc2ccccc2)c1 (stereo not drawn),/,67,/,-8,-28,/,-6,-8,
COc1ccc(/C=N/NC(=O)c2ccn[nH]2)cc1Cn1cc([N+](=O)[O-])cn1,i,-26,-9,1,-5,7,-1,0,
CC(=O)c1sc(NC(=O)CN2C(=O)CCC2=O)nc1C,i,1,/,-49,/,/,0,1,
CCCCNC(=O)C1CC(=O)N(CCc2ccccc2)C1 (stereo not drawn),i,-32,-6,/,17,-9,2,1,
CCCS(=O)(=O)NCCc1cc2ccc(OC)cc2[nH]c1=O,/,-4,7,-18,-7,7,-1,3,
C[n+]1ccc(C(=O)Nc2ccccc2Cl)cc1,i,2,10,-23,-1,83*,-4,1,eIF4H inh retest=2;PABP FP inh retest=92*
CS(=O)(=O)N(CC(=O)N1CCN(c2ccc(F)cc2)CC1)c1ccc(F)c(Cl)c1,i,0,-5,-7,-6,9,1,-5,
Cn1c(SCC(=O)N2CCN(c3ccccc3)CC2)nnc1-c1ccccc1,i,/,-6,3,5,-9,1,-1,
O=C(Nc1ccccc1)Nc1c(F)cccc1F,i,-2,-2,/,1,-11,1,2,
COc1ccc(Nc2nnc(SCC(=O)NC3CC3)s2)cc1,/,-23,/,-8,/,/,1,0,
CC(NC(=O)Nc1ccc(Cl)cc1)C1CCCO1 (stereo not drawn),i,10,-9,/,2,-5,4,4,
Cc1[nH][nH]c(=O)c1C(c1cc(Br)ccc1O)c1c(C)[nH][nH]c1=O,i,3,0,-19,19,6,2,5,
Cc1cc2c(=O)n(NC(N)=O)c(C)nc2s1,i,-3,-8,3,/,5,-2,4,
CC(C)n1c(C(F)(F)F)nc2cc(C(=O)N3CCOCC3)ccc21,i,-15,2,-8,21,-3,1,4,
O=C(Nc1cc(C(F)(F)F)ccc1Cl)c1ccncc1,i,1,6,/,2,5,-3,0,
CCCNC(=O)C1(C)CCN(C(=O)c2ccccc2F)C1 (stereo not drawn),/,/,/,-11,7,/,2,6,
O=C(CNC(=O)c1ccc(=O)[nH]c1)Nc1ccc(F)c(F)c1,i,0,12,-21,-3,-9,1,1,
COC(=O)c1cccc(N(CC(=O)NC2CCCC2)C(=O)CCC(=O)Nc2cc(C)on2)c1,i,/,-11,-8,-5,-1,-1,1,
CCN(CC)CCSc1nc(O)c(C(C)C)c(=O)[nH]1,i,-4,-9,-23,5,-1,-6,-11,
COC(=O)c1ccc(COC(=O)c2nn(C)c(=O)c3ccccc23)cc1,i,3,-4,-17,11,-16,-4,-26,
Cc1ccc(NC(=O)C2CCN(S(=O)(=O)c3c(C)nn(C)c3C)CC2)c(Cl)c1,i,-14,-2,/,-6,-6,2,-1,
O=C(Cn1cc2c(n1)CCCCC2)NCCCN1CCOCC1,i,-16,-10,-5,-22,-6,-3,0,
CCOc1ccccc1CN1CCN(CC2CC2)CC1CCO (stereo not drawn),i,0,5,-16,2,-9,-1,0,
Cc1occc1C(=O)N1CCN(S(=O)(=O)c2ccccc2)CC1,i,7,-10,-9,/,5,-1,0,

# Structural class, the compounds so far with a COOH group (2)
SMILES,Rce1 inhib,CSC inhib,eIF4H inh,Yeast UUG start,HIV Env fusion,PABP FP inh,MT1-MMP act inh,MT1-MMP act inh RFP,others
COc1ccc(CCNC(=O)Cn2nc(C(=O)O)c3ccccc3c2=O)cc1OC,i,2,11,/,2,9,3,3,
Cc1oc2cc3oc(=O)c(CCC(=O)NCCC(=O)O)c(C)c3cc2c1C,i,1,11,-4,-4,16,3,5,

# Carrying on:
SMILES,Rce1 inhib,CSC inhib,eIF4H inh,Yeast UUG start,HIV Env fusion,PABP FP inh,MT1-MMP act inh,MT1-MMP act inh RFP,others
Cc1oc2cc(OCC(=O)O)ccc2c(=O)c1Oc1ccccc1,/,-8,-16,5,/,3,1,1,
CNc1ccc(C(=O)c2ccccc2C(=O)O)cc1[N+](=O)[O-],i,-13,-16,/,0,1,5,3,
Cc1ccccc1C(=O)Nc1ccc2c(C#N)c3nc4ccccc4nc3n2c1,i,29,?,/,-66,5,2,70,
Nc1nc(N)nc(C2C=CCCC2)n1 (stereo not drawn),/,/,/,5,7,/,-2,3,
CCCCOC(=O)CSC1=C(C#N)C(c2ccccc2OC)C(C#N)C(=O)N1 (stereo not drawn),i,0,11,-30,-9,-2,-5,1,
O=C(Nc1cnn(C23CC4CC(CC(C4)C2)C3)c1)c1cnn2c(C(F)(F)F)cc(-c3ccco3)nc12,i,43,10,-30,/,9,15,-4,
CCN(CC)S(=O)(=O)c1ccc(C(=O)OCCN2C(=O)c3cccc4c(N5CCOCC5)ccc(c34)C2=O)cc1,i,1,?,/,1,3,-118,-4,
Cc1ccc(S(=O)(=O)N(C)CC(=O)N(C)CCOc2ccccc2)cc1,/,/,/,0,17,/,7,5,
COc1ccc2c(c1)OC[C@H]1[C@H]2N2C(=O)c3cc(OC)c(OC)cc3NC(=O)[C@@]2(C)[C@H]1c1ccccc1,/,4,/,-2,-31,/,-21,-19,
COc1ccc(NC(=O)C23CCC(C)(C(=O)O2)C3(C)C)cc1 (stereo not drawn),/,2,-16,-16,4,-3,2,1,
Cc1nnc(SCC(=O)N2CCN(S(=O)(=O)c3ccccc3)CC2)n1Cc1ccccc1,i,-6,-4,-14,-21,8,1,0,
Cc1ccc(NC(=O)CSc2nc3[nH]c(=O)cc(O)c3s2)c(Br)c1,/,0,/,-8,4,/,-7,5,
CCn1cc(Cl)c(C(=O)Nc2nccs2)n1,i,/,14,-14,-9,-4,4,4,
CC(C)(C)OC(=O)N1CCN(c2ccc(NC(=O)c3ccco3)cc2)CC1,i,/,-10,-3,-12,-1,2,-3,
CN(C)c1ccc(/C=C(/C#N)C(=O)Nc2nc3c(s2)CCN(Cc2ccccc2)C3)cc1,/,/,/,0,13,/,-93,4,
O=C(C(c1ccccc1)c1ccccc1)N1CCN(Cc2ccncc2)CC1,i,-9,-9,-19,/,25,1,2,
Cc1cc(C)n(-c2nnc3n2N=C(c2c[nH]c4ccccc24)CS3)n1,i,43,2,-10,/,-5,2,-8,
C=CCn1c(NS(=O)(=O)c2ccccc2)c(S(=O)(=O)c2ccc(C)cc2)c2nc3ccccc3nc21,i,9,2,-19,-12,-4,1,7,
CCOC(=O)c1cc(C)sc1NC(=O)c1ccc(Cl)s1,i,-9,-4,-5,/,4,-4,0,
COC(=O)c1ccc(NS(=O)(=O)c2c(C)nc3sccn3c2=O)cc1,/,/,/,-21,-5,/,5,-6,
CCCCc1nc2ccccc2c(=O)n1NC(=O)c1c(O)c2c(n(CC(C)C)c1=O)CCCC2,i,/,-6,-20,25,-5,-21,-14,
Cn1c(NCc2ccco2)nc2c1c(=O)n(Cc1ccc(Br)cc1)c(=O)n2C,i,-4,1,-12,-2,6,3,-2,
COCCNC(=O)CSc1nc(-c2ccccc2)cs1,i,-11,-4,-18,-23,-2,3,2,
CS(=O)(=O)N1CCC(C(=O)Nc2ccc(Cl)cc2Cl)CC1,/,/,/,-15,0,/,4,6,
CCOC(=O)C1=C(C)Nc2nc(=S)[nH]n2C1c1ccc(Cl)cc1 (stereo not drawn),i,/,-8,-14,-92,-3,-9,-8,
CC1OC(OC2C(CO)OC(OC3C(CO)OC(O)C(O)C3O)C(O)C2O)C(O)C(O)C1N[C@@H]1C=C(CO)[C@@H](O)C(O)[C@H]1O (stereo partly drawn),i,-15,-4,-8,/,-2,0,5,
COc1cc(/C=N/NC(=O)c2ccoc2C)cc(OC)c1OC,i,-2,/,-24,-12,/,9,-1,
CSc1cccc(NC(=O)/C=C/c2ccc(Cl)cc2)c1,i,23,-3,-14,-11,-8,5,0,
